TRPV1 potentiator: HTS Assay for Compounds that Act as Potentiators of the Vanilloid Receptor 1 | TRPV1-expressing cells, Fluo-8 calcium influx, capsaicin EC20 potentiation; host cell line not named in the record; control for the full effect not named in the record | hit rate 0.02% among 320,000 | AID 540277, 2011 | Transient receptor potential cation channel subfamily V member 1 (Homo sapiens), Q8NER1 | potentiation, % at 8.33 µM; active means potentiation above 80%; inconclusive means 30% to 80%; inactive means below 30%; note: 0% is about no effect
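Fluo-8 calcium influx in TRPV1-expressing cells, kinetic read (ex 480/em 520 nm). Compound added and read 3 min for agonist activity, followed by capsaicin at EC20 final and 2 min further read for enhancement.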
CtBP-E1A blk: qHTS Assay for Inhibitors of the CtBP/E1A Interaction; CtBP / adenovirus E1A interaction (AlphaScreen); hit rate 0.49% among 340,000; activity change, % (no concentration beside the values); AlphaScreen GST-E1A/His-CtBP binding, 1536-well; hits give low values; control for the full effect not named in the record; in the data active means activity change below about -65%; inconclusive means about -30% to -65%; inactive means above about -30%; note: % is set by controls: 0 for no effect and ±100 for the full control effect; compound concentration not given in the record
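Protein mix (5X: 125 nM each GST-E1A, His-CtBP) was incubated with pinned compound 2 h at 37 deg C in dark, in 50 mM Tris pH 8.0 buffer with 300 mM NaCl. Glutathione donor and nickel acceptor beads followed; AlphaScreen signal read after 1 h.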
TRPML1 blocker: qHTS for Inhibitors of the Human Mucolipin Transient Receptor Potential 1 (TRPML1); TRPML1-inducible cells, Ca2+ dye fluorescence, FDSS; hits give low values; inhibition of EC80 agonist-evoked calcium signal; Mucolipin-1 (Homo sapiens), Q9GZU1; hit rate 0.02% among 390,000; activity change, negative = inhibition, % (concentration not given with the values); AID 624415, 2012; in the data active means activity change below about -50%; inconclusive means about -30% to -50%; inactive means above about -30%;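 note: stimulus is agonist 54-4 at its EC80 concentration; % is set by controls: 0 for no effect and ±100 for the full control effect; compound concentration not given in the record; the text of the record puts the active cut at -80%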
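TRPML1-DL cells, Tet-induced overnight (~16 h, 37 °C) at 1,500 cells/well, were loaded with Ca8 no-wash dye plus quencher for 45-90 min at room temperature. Compounds were pinned during FDSS kinetic reading; agonist 54-4 at EC80 (4 uM final) then added.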
TRPML1 ag: qHTS for Agonists of the Human Mucolipin Transient Receptor Potential 1 (TRPML1) | AID 624414, 2012 | TRPML1-expressing cells, Ca2+ dye fluorescence, FDSS; host cell line not named in the record; reference of the full effect not given here | activation, % (test concentration not listed) | hit rate 0.12% among 410,000 | Mucolipin-1 (Homo sapiens), Q9GZU1; in the data active = activation above about 50%; inconclusive = about 30% to 50%; inactive = below about 30%; note: 0% is about no effect; the text of the record puts the active cut at 80%
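TRPML1-DL cells, Tet-induced overnight (~16 h, 37 degrees C), loaded 45-90 min at room temperature with Ca8 no-wash calcium dye plus quencher. FDSS fluorescence: 10 s baseline, compound pin-transfer, 110 s agonist read, then EC80 54-4 (4uM final) and 110 s antagonist read.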
Six1-Eya2 inh: qHTS Assay for Inhibitors of the Six1/Eya2 Interaction. hit rate 0.56% among 360,000. activity change, % (concentration not given with the values). AlphaScreen GST-Six1/His-Eya2 binding, biochemical; hits give low values; control for the full effect not named in the record; in the data active = activity change below about -65%; inconclusive = about -30% to -65%; inactive = above about -30%; note: % is set by controls: 0 for no effect and ±100 for the full control effect
Target sequence (O00167 whole entry, looked up): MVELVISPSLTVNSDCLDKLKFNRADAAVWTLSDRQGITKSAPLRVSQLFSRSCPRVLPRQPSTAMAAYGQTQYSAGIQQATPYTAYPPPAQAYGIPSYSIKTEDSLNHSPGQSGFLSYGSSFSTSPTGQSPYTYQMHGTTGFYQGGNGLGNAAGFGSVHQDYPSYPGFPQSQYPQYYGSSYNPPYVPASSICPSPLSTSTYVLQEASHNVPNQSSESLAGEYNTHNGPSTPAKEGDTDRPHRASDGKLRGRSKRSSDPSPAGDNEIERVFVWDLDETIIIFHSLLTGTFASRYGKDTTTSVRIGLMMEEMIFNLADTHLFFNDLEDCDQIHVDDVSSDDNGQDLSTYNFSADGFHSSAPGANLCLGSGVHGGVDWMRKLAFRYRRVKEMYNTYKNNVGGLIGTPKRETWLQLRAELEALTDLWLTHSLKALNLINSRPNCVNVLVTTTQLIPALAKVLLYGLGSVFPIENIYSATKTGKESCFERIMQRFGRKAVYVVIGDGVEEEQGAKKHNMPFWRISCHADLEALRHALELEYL
Target sequence (Q15475 whole entry, looked up): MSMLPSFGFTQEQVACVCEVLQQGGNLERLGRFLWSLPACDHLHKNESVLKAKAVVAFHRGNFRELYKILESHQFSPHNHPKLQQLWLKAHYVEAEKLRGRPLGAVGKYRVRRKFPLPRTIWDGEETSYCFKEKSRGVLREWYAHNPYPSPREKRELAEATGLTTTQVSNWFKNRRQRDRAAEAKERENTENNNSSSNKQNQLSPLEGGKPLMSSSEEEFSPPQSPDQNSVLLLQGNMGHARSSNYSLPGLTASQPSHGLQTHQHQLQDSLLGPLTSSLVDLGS
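GST-Six1 + His-Eya2 (5X stock: 250/500 nM); Tris pH 8.0, 300 mM NaCl, 0.05% BSA, 0.02% Tween 20; GSH donor/Ni acceptor beads; 1 h 37 °C dark; AlphaScreen readout.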
D2 PAM: Beta-Arrestin HTS for Positive Allosteric Modulators of the Human D2 Dopamine Receptor: Potentiators | D(2) dopamine receptor (Homo sapiens), P14416 | DiscoveRx D2 beta-arrestin cells, luminescence, 90 min; 100% = 57 uM dopamine signal | potentiation, % (concentration not given with the values) | hit rate 0.23% among 360,000; active = potentiation of 50% or more; inconclusive = 30% to 50%; inactive = 30% or less;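 note: compound concentration not given in the record; tested on top of an EC20 dose of dopamine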
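D2 cells co-treated with compound plus 50 nM dopamine (EC20) for 90 min at 37 deg C to detect potentiation. Beta-arrestin recruitment was read as enzyme-fragment luminescence after 1 h at ambient temperature. Full response was set by 57 uM dopamine.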
The depositor's hits bear a star; ? = inconclusive; nt = no result given; & = joins results of further samples.

SMILES | TRPV1 potentiator | CtBP-E1A blk | TRPML1 blocker | TRPML1 ag | Six1-Eya2 inh | D2 PAM
CSc1ccccc1OCc1cc(C(=O)N(C)Cc2cnccn2)no1 | 27 | 0 | 10 | 0.6 | 3 | -2
O=C(Nc1cccc(Cl)c1)c1ccc(NCCCN2CCOCC2)c([N+](=O)[O-])c1 | -12 | ? | 12 | -0.1 | ? | -34
CC1CN(c2nc(Nc3ccccc3F)nc(N)c2[N+](=O)[O-])CC(C)O1 (stereo not drawn) | -14 | 0 | 2 | 2.7 | 10 | 4
COc1ccccc1-c1nnn(C/C(N)=N/O)n1 | 2 | 6 | -21 | 0.5 | 21 | -1
COc1ccc(-n2c(=S)[nH]c3cc(C(=O)Nc4ccccc4OC)ccc3c2=O)c(OC)c1 | -20 | -14 | -4 | 0.5 | -8 | -15
CN1CCC2(CC1)N=C(c1ccc(F)cc1)C(=S)N2C(=O)c1ccc(C(C)(C)C)cc1 | 9 | -5 | -6 | -0.1 | 12 | -2
Cc1nc2ccccc2n1CC(O)COc1ccc(Br)cc1 (stereo not drawn) | 7 | 11 | -7 | 0.9 | 7 | -11
Cc1nonc1CN(C)C(=O)CC1C(=O)NCCN1Cc1c(F)cccc1Cl (stereo not drawn) | 7 | -20 | 11 | 0.3 | 2 | -6
COc1ccccc1-c1cc(C(F)(F)F)nc(S(=O)(=O)CCCC(=O)NC(C)C)n1 | 4 | 12 | 1 | -1.0 | 4 | 6
COC(=O)c1ccc(C(=O)OC)c(NC(=O)CSc2nc(-c3ccco3)cc(C(F)(F)F)n2)c1 | nt | 0 | 11 | -1.3 | -4 | -10
COc1ccccc1NS(=O)(=O)c1ccc(C(=O)NCC(c2ccccc2OC)N2CCCC2)cc1 (stereo not drawn) | nt | nt | -1 | 0.1 | -7 | -11
O=C(Nc1cccnc1)C1(F)C(F)(F)C(F)(F)C(F)(F)C(F)(F)C1(F)F | -12 | 10 | 11 | 0.4 | 6 | -2
COC(=O)c1[nH]c(C)c(/C(O)=C2\C(=O)C(=O)N(CCN(C)C)C2c2ccc(C)o2)c1C (stereo not drawn) | 0 | -3 | -1 | -0.7 | -9 | -9
Cc1ccccc1-c1nnn(CC(=O)N(C)CC(=O)Nc2ccccc2C(F)(F)F)n1 | 2 | 12 | 0 | -0.7 | 3 | -5
CCc1c(C)nc2nc(SCc3ccccc3)[nH]n2c1=O | 2 | 8 | -12 | -0.2 | 6 | 7
CC(=O)NC(CCS(C)(=O)=O)C(=O)Nc1nc(C)cs1 (stereo not drawn) | -5 | -22 | -6 | 0.2 | -7 | -1
N#Cc1ccccc1S(=O)(=O)N1CCN(C(=O)CN2C(=O)NC3(CCCC3)C2=O)CC1 | -5 | -15 | 6 | 3.6 | 9 | 0
O=S(=O)(Nc1ccc(-n2cnnn2)cc1)c1cccs1 | 1 | 29 | -5 | -0.2 | 12 | -2
CCOC(=O)C1(C)CCCN(C(=O)C(c2ccccc2)c2ccccc2)C1 (stereo not drawn) | nt | 1 | 21 | -0.3 | 0 | -11
O=c1cc(N2CCN(c3ccccc3)CC2)[nH]c(=O)n1-c1ccccc1 | 21 | -2 | 16 | 0.7 | 2 | 1
O=C(NCCN1CCOCC1)/C(=C\c1ccc(F)cc1)NC(=O)c1ccccc1 | ? | 2 | 12 | -0.6 | 0 | -24
COc1ccc(CCNC(=O)c2cc(S(=O)(=O)N3CCc4ccccc43)ccc2F)cc1OC | nt | -5 | -2 | 2.1 | -6 | -10
O=C(NCc1ccncc1)[C@@H]1CCCN1C(=O)[C@@H]1CCCN1C(=O)c1cccs1 | nt | 13 | nt | 1.0 | 8 | nt
COc1ccccc1CNC(=O)CSc1nc(C)cs1 | 8 | 17 | -8 | 0.0 | 0 | -1
CCO/N=C/C1=C(O)C(C(=O)OC)C(C)(C)CC1=O (stereo not drawn) | ? | -1 | -13 | 1.3 | 5 | 4
N#CC1=C(N)Oc2cc(O)c(Cl)cc2C1c1ccccc1F (stereo not drawn) | 20 | nt | 7 | ? | 0 | 19
COc1cc2c(cc1OC)CN(C(=O)CNC(=O)c1ccc(OC(F)F)cc1)CC2 | 28 | 2 | -3 | -0.9 | -13 | -6
COc1cc(CNc2ncn[nH]2)ccc1OCC(=O)NC(C)(C)C | 12 | -5 | -1 | -0.2 | 0 | -4
Cn1c(=O)[nH]c(=O)c2c1nc(CN1CCOCC1)n2Cc1ccc(F)cc1 | -2 | 2 | 7 | -0.3 | 1 | -7
COCCN1C(=O)c2ccccc2C1c1nc2ccccc2[nH]1 (stereo not drawn) | nt | 8 | nt | -0.6 | 10 | 0
CN(C)c1cc(NC(=O)CNC(C)(C)C)c2ccccc2n1 | ? | nt | 4 | 0.3 | 0 | -4
O=C(CC(=O)c1ccccc1)Nc1ccccc1 | nt | -18 | 9 | 2.9 | -7 | -12
Cc1ccc(C)c(OCCC(=O)Nc2ccccc2C(=O)NC2CC2)c1 | nt | 2 | 6 | -0.3 | 2 | -9
Cc1cc(C)c(C#N)c(N2CCN(Cc3ccccc3)CC2)n1 | -7 | 1 | 1 | 1.6 | -1 | -21
O=C(COC(=O)CCc1nc2ccccc2c(=O)[nH]1)Nc1ccccc1 | nt | 6 | 4 | -0.4 | 7 | -7
CON1C(=O)C(=O)N(OC)C(C)(C)C1(C)C | 2 | 7 | 0 | -0.2 | -7 | -4
CCN1CCN(CCCNC(=O)c2ccc3c(c2)NC(=O)c2ccccc2S3)CC1 | -4 | 0 | -4 | -0.4 | 0 | -4
COc1ccccc1C(=O)NNC(=O)c1ccccc1 | 1 | -4 | -3 | 0.4 | 3 | -4
CCn1ccnc1CNC(=O)CC1C(=O)NCCN1CCCc1ccccc1 (stereo not drawn) | 0 | -9 | -2 | 0.1 | -25 | -5
O=C(CCCCC(=O)OCC1CCCO1)OCC1CCCO1 (stereo not drawn) | nt | 7 | -4 | -0.3 | 6 | 4

As entered above:
CN(C)c1cc(NC(=O)CNC(C)(C)C)c2ccccc2n1 in TRPML1 ag → 0.3
Cc1ccc(C)c(OCCC(=O)Nc2ccccc2C(=O)NC2CC2)c1 in CtBP-E1A blk → 2
Cc1cc(C)c(C#N)c(N2CCN(Cc3ccccc3)CC2)n1 in TRPV1 potentiator → -7

Of the compounds above, these have a Cl atom:
SMILES | TRPV1 potentiator | CtBP-E1A blk | TRPML1 blocker | TRPML1 ag | Six1-Eya2 inh | D2 PAM
O=C(Nc1cccc(Cl)c1)c1ccc(NCCCN2CCOCC2)c([N+](=O)[O-])c1 | -12 | ? | 12 | -0.1 | ? | -34
Cc1nonc1CN(C)C(=O)CC1C(=O)NCCN1Cc1c(F)cccc1Cl (stereo not drawn) | 7 | -20 | 11 | 0.3 | 2 | -6
N#CC1=C(N)Oc2cc(O)c(Cl)cc2C1c1ccccc1F (stereo not drawn) | 20 | nt | 7 | ? | 0 | 19

Continuation.
SMILES | TRPV1 potentiator | CtBP-E1A blk | TRPML1 blocker | TRPML1 ag | Six1-Eya2 inh | D2 PAM
Cc1ccc(N2CCN(C(=O)CN3C(=O)c4ccccc4C3=O)CC2)cc1 | -3 | -3 | -15 | 3.3 | 0 | -12
COC(=O)C1(CCSC)NC(c2ccc(O)c(OC)c2)C2C(=O)N(c3ccc(C)cc3)C(=O)C21 (stereo not drawn) | -6 | 10 | -8 | -0.2 | -3 | 6
COc1cccc(CNS(=O)(=O)c2ccccc2Br)c1OC | nt | 5 | 11 | -0.8 | 5 | -3
O=C(COC(=O)c1ccc(CSc2ccc(Cl)cc2)cc1)Nc1ccccc1 | 5 | -14 | -1 | 1.3 | 9 | -2
O=C(CN1CCN(c2ccc(F)cc2)CC1)NCC1CCCO1 (stereo not drawn) | -9 | 4 | 4 | -0.5 | 2 | -12
O=S(=O)(NC1CC1)c1ccc(S(=O)(=O)N2CCC3(CC2)OCCO3)cc1 | -14 | 6 | 39 | 0.1 | -1 | -3
O=C(Nc1cc(Cl)ccc1N1CCOCC1)c1ccc2c(c1)OCCO2 | -4 | -1 | -6 | -0.7 | -1 | 2
C/C(CC(=O)Nc1ccc(F)cc1)=N\NC(=O)Cc1csc(N)n1 | 17 | 0 | -9 | 0.9 | 13 | -9
CN(C)CCCNc1nc2cc(-c3cnn(C)c3)sc2c(=O)n1C | nt | 1 | nt | -0.6 | -2 | -4
CN1CCc2ccccc2CC1=O | -2 | -1 | -3 | 0.3 | 8 | 14
Cc1ccc(C(=O)OC(C)C(=O)NC2CCCCC2C)cc1S(=O)(=O)N1CCCCC1 (stereo not drawn) | -10 | 9 | -1 | 0.3 | 22 | -3
Cc1cc(C)cc(NC(=O)Cn2nnc(C(=O)NCc3ccccc3Cl)c2N)c1 | -15&-2 | 34 | -7&28 | -1.1&1.8 | 15 | -10
CC1CCCC(C)N1CCCNC(=O)Cn1cc2c(n1)CCCC2 (stereo not drawn) | -4 | -1 | -14 | 1.4 | 6 | -2
Cc1nc2ccccc2nc1CSc1nnc(N)s1 | 2 | -6 | -6 | 0.5 | -7 | 6
Cc1ccc(N=C2SCCCN2C(=O)C2=COCCO2)cc1Cl | 8 | 2 | -1 | -0.6 | -6 | -3
Clc1ccccc1CSC1=NCCCN1 | 3 | 4 | 5 | -0.4 | 0 | -7
C=CCOC(=O)C1=C[C@H](c2coc3ccccc3c2=O)C[C@H](OCc2ccc(CO)cc2)O1 | ? | 0 | -7 | -0.9 | 1 | 1
COCCn1c(N)c(NCc2ccccc2)c(=O)[nH]c1=O | 2 | 8 | -4 | 1.5 | 1 | 1
CCOc1ccc(N2C(=O)C(=O)/C(=C(/O)c3ccccc3)C2c2ccccc2[N+](=O)[O-])cc1 (stereo not drawn) | -5 | 3 | -18 | 2.4 | -5 | -11
COc1ccc2c(c1OC)C(=O)N(c1ccc(F)cc1)C2 | 23 | -24 | 1 | 0.3 | -11 | 4
COc1ccc(C2c3[nH]c4ccccc4c3CCN2CCCn2cccn2)cc1C (stereo not drawn) | -12 | -13 | 64 | 1.0 | -12 | -12
CN(CCNC(=O)C1CCCN(c2ncnc3c2nc2n3CCCCC2)C1)Cc1ccccc1 (stereo not drawn) | -8 | nt | 5 | 0.5 | 14 | -17
COc1ccccc1CCC(=O)OCc1csc(CC(=O)Nc2ccccc2C)n1 | -6 | 3 | 13 | 1.0 | 0 | -3
CC1(C)CC(NC(=O)C(=O)NCCc2ccccc2)CC(C)(C)N1 | -5 | nt | -1 | -0.2 | 2 | -17
Cc1ccc(S(=O)(=O)Nc2nc(C)cc(NCCN)n2)cc1 | 12 | -5 | 6 | 0.5 | 1 | 1

2 of these compounds, set out differently:
Every second line gives: TRPV1 potentiator, CtBP-E1A blk, TRPML1 blocker, TRPML1 ag, Six1-Eya2 inh, D2 PAM
> CC1CN(c2nc(Nc3ccccc3F)nc(N)c2[N+](=O)[O-])CC(C)O1 (stereo not drawn)
 : -14, 0, 2, 2.7, 10, 4
> COc1ccccc1-c1nnn(C/C(N)=N/O)n1
 : 2, 6, -21, 0.5, 21, -1
